Compound activity as filed in PubChem BioAssay.
PV pol inh: inhibitors of poliovirus RNA polymerase binding and polymerization; poliovirus polymerase elongation, fluorescence polarization; stronger effect = lower value; % elongation, % (compound at 16.7 µg/mL); actives 0.66% (n = 150,000); in the data active = % elongation below about 90%; note: some results filed as inactive read as strong as hits
Target sequence (P03300 1749-2209 limits assumed): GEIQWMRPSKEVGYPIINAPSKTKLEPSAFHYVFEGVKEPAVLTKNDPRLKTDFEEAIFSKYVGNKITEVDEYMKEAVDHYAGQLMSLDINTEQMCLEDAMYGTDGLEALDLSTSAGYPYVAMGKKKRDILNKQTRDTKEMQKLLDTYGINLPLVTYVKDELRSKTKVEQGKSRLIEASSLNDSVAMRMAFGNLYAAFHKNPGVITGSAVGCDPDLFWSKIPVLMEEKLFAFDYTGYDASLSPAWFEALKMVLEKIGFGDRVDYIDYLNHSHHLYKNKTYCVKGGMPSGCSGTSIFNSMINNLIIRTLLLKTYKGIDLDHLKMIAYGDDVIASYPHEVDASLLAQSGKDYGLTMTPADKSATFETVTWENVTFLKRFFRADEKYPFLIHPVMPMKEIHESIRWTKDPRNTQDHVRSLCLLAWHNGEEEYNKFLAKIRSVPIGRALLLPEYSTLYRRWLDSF
PV pol inh intensity: recorded beside PV pol inh, whose call it bears; % elongation; measured here: total intensity read-out; formula for this scale not given here;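 total fluorescence in place of polarization; lower means less elongation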
* hit, by the source's call. Some of the compounds tested, so the mix of outcomes need not match the whole.

Start of the listing, in advance (17 entries):
SMILES | PV pol inh | PV pol inh intensity
Cc1cncn1CCc1nc2c3ccccc3nc(SCC(=O)Nc3ccccc3F)n2n1 | 107.0 | 108.0
COc1cccc(-n2c(=O)c3c4c(sc3n(Cc3ccccc3C#N)c2=O)CCCC4)c1 | 109.0 | 110.0
COc1ccccc1CN1CCC(CNC(=O)c2cnn(-c3ccccc3Cl)c2C2CCN(C(=O)OC(C)(C)C)CC2)CC1 | 112.0 | 111.0
CCCn1cc(S(=O)(=O)c2cc(C)ccc2C)c(=O)c2cc(F)c(N3CCCCCC3)cc21 | 104.0 | 111.0
O=C(CSc1nc(=O)[nH]c2c1CCCC2)NCc1ccccc1 | 106.0 | 109.0
Cc1cccc(C)c1Nc1c(-c2ccc(N3CCOCC3)cc2)nc2ncccn12 | 125.0 | 136.0
CCOC(=O)C1CCCN(C(=O)c2ccc(C)c(NC(=O)c3nsc4ccccc34)c2)C1 (stereo unspecified) | 102.0 | 98.0
Fc1ccc(-c2noc3ncnc(NCc4ccc(Cl)cc4)c23)cc1 | 107.0 | 105.0
Cc1cc(NC(=O)c2ccc(-c3ccc(Cl)cc3)o2)cc(-c2nc3ncccc3o2)c1O | 107.0 | 109.0
Cc1ccccc1NC(=O)CSc1nc(-c2ccco2)nc2cc(=O)[nH]n12 | 104.0 | 106.0
CCOc1ccccc1C(=O)NCc1ccc2c(c1)CCN2C(C)=O | 111.0 | 113.0
CC(C)CCNC(=O)c1ccc(Cn2c(=O)c3cccn3c3cccnc32)cc1 | 106.0 | 111.0
O=C(Nc1sc2c(c1C(=O)NCc1ccco1)CCCC2)c1cc(=O)c2cc(Cl)ccc2o1 | 105.0 | 109.0
CCCS(=O)(=O)c1nc(S(=O)(=O)c2ccc(C)cc2)c(N(C)Cc2ccccc2)s1 | 106.0 | 107.0
O=C(NCc1ccccc1Cl)c1ccc2c(c1)N(Cc1ccccc1)C(=O)c1ccccc1S2 | 108.0 | 101.0
Cc1ccc(/C=C/C(=O)N2CCC(c3nc4ccccc4o3)CC2)cc1 | 102.0 | 112.0
Cc1ccc(NC(=O)CC2Nc3ccccc3NC2=O)cc1C (stereo unspecified) | 103.0 | 103.0

The list itself, previewed entries included:
SMILES | PV pol inh | PV pol inh intensity
Cc1cncn1CCc1nc2c3ccccc3nc(SCC(=O)Nc3ccccc3F)n2n1 | 107.0 | 108.0
COc1cccc(-n2c(=O)c3c4c(sc3n(Cc3ccccc3C#N)c2=O)CCCC4)c1 | 109.0 | 110.0
COc1ccccc1CN1CCC(CNC(=O)c2cnn(-c3ccccc3Cl)c2C2CCN(C(=O)OC(C)(C)C)CC2)CC1 | 112.0 | 111.0
CCCn1cc(S(=O)(=O)c2cc(C)ccc2C)c(=O)c2cc(F)c(N3CCCCCC3)cc21 | 104.0 | 111.0
O=C(CSc1nc(=O)[nH]c2c1CCCC2)NCc1ccccc1 | 106.0 | 109.0
Cc1cccc(C)c1Nc1c(-c2ccc(N3CCOCC3)cc2)nc2ncccn12 | 125.0 | 136.0
CCOC(=O)C1CCCN(C(=O)c2ccc(C)c(NC(=O)c3nsc4ccccc34)c2)C1 (stereo unspecified) | 102.0 | 98.0
Fc1ccc(-c2noc3ncnc(NCc4ccc(Cl)cc4)c23)cc1 | 107.0 | 105.0
Cc1cc(NC(=O)c2ccc(-c3ccc(Cl)cc3)o2)cc(-c2nc3ncccc3o2)c1O | 107.0 | 109.0
Cc1ccccc1NC(=O)CSc1nc(-c2ccco2)nc2cc(=O)[nH]n12 | 104.0 | 106.0
CCOc1ccccc1C(=O)NCc1ccc2c(c1)CCN2C(C)=O | 111.0 | 113.0
CC(C)CCNC(=O)c1ccc(Cn2c(=O)c3cccn3c3cccnc32)cc1 | 106.0 | 111.0
O=C(Nc1sc2c(c1C(=O)NCc1ccco1)CCCC2)c1cc(=O)c2cc(Cl)ccc2o1 | 105.0 | 109.0
CCCS(=O)(=O)c1nc(S(=O)(=O)c2ccc(C)cc2)c(N(C)Cc2ccccc2)s1 | 106.0 | 107.0
O=C(NCc1ccccc1Cl)c1ccc2c(c1)N(Cc1ccccc1)C(=O)c1ccccc1S2 | 108.0 | 101.0
Cc1ccc(/C=C/C(=O)N2CCC(c3nc4ccccc4o3)CC2)cc1 | 102.0 | 112.0
Cc1ccc(NC(=O)CC2Nc3ccccc3NC2=O)cc1C (stereo unspecified) | 103.0 | 103.0
Cc1ccc(S(=O)(=O)N(CCc2ccccc2)CC(=O)Nc2ccccc2C)cc1 | 107.0 | 110.0
Cc1ccc(-n2nc(C)c3c(C(=O)Nc4ccc(Br)c(C)c4)cc(C)nc32)cc1 | 111.0 | 116.0
Cc1ccc(NC(=O)c2ccc(NC(=O)N3CCSc4ncccc43)cc2)c(C)c1 | 99.0 | 100.0
O=C(CSc1ncc(CO)n1Cc1ccccc1)Nc1ccc(C(F)(F)F)cc1 | 103.0 | 96.0
COc1ccc(NC(=O)Cn2c(=O)n(Cc3ccco3)c(=O)c3cc(OC)c(OC)cc32)cc1 | 112.0 | 111.0
O=C(CSc1nc(-c2ccccc2)[nH]c1-c1ccc(F)cc1)NC1CCCC1 | 109.0 | 108.0
COC(=O)c1ccccc1NC(=O)c1cnc(Nc2ccc(OC)cc2)c2ccccc12 | 102.0 | 104.0
COCCCNc1nc2cc(OC)c(OC)cc2c2nc(-c3ccccc3)nn12 | 103.0 | 104.0
CSc1ccc(CCNC(=O)c2ccc3c(c2)nc2n3CCC(C)C2)cc1 (stereo unspecified) | 110.0 | 115.0
CCC(CC)C(=O)OCc1cc(=O)n2nc(C3CC3)sc2n1 | 106.0 | 113.0
Cc1ccc(S(=O)(=O)NCCc2csc3nc(-c4ccccc4F)nn23)cc1C | 108.0 | 107.0
Cc1cc(C)c2oc(C(=O)Nc3nc4ccc(Cl)cc4s3)cc(=O)c2c1 | 99.0 | 102.0
Cc1ccc(OCC(=O)Nc2cccc(C(=O)OCc3cc(=O)n4c(C)csc4n3)c2)cc1 | 104.0 | 107.0
CC(=O)N1c2ccc(S(=O)(=O)NCC3CCC(C(=O)Nc4cccc(C)c4C)CC3)cc2CC1C (stereo unspecified) | 116.0 | 116.0
COc1ccccc1CNC(=O)CSc1ncc2c(n1)-c1cc(Cl)ccc1N(Cc1ccccc1)S2(=O)=O | -5.0* | 21.0*
COC(=O)c1sccc1S(=O)(=O)N1CCN(c2cccc(C)c2C)CC1 | 100.0 | 108.0
COc1ccc(C(CNC(=O)c2oc3cc(Br)ccc3c2C)N2CCCCC2)cc1 (stereo unspecified) | 105.0 | 102.0
COc1ccc(CCNS(=O)(=O)c2cc(-c3onc(C)c3C)ccc2OC)cc1OC | 108.0 | 108.0
Cc1cc(-c2ccc(S(=O)(=O)Nc3cccc(Cl)c3C)cc2)on1 | 106.0 | 113.0
CCOc1ccc(CCNC(=O)c2ccc3nc(CC)c(CC)nc3c2)cc1 | 104.0 | 106.0
Cc1cccc(OCC(=O)Nc2ccc(S(=O)(=O)Nc3onc(C)c3C)cc2)c1C | 100.0 | 103.0
CC(=O)c1cccc(NC(=O)CCn2nc(C)c(S(=O)(=O)N(C)C)c2C)c1 | 106.0 | 109.0
CN(C)c1ccc(CNC(=O)c2ccc(Cn3c(SCc4ccccc4)nc4cccnc43)cc2)cc1 | 111.0 | 113.0
CCc1ccc(CN(C(=O)c2ccc(OC)cc2)C2CCS(=O)(=O)C2)cc1 (stereo unspecified) | 100.0 | 102.0
COc1cccc(N2C(=O)CSC23C(=O)N(Cc2ccccc2)c2ccccc23)c1 (stereo unspecified) | 102.0 | 106.0
Cc1ccc(-n2ncc3c(NC4CCCCC4)ncnc32)cc1Cl | 106.0 | 107.0
Cc1cccc(CN2C(=O)c3ccccc3Sc3ccc(C(=O)N4CCCC4)cc32)c1 | 115.0 | 108.0
COc1ccccc1-c1cc(C(=O)Nc2cc(Cl)ccc2O)no1 | 108.0 | 110.0
O=C(NCc1ccco1)c1ccc2c(c1)N(Cc1ccccc1)C(=O)c1ccccc1S2 | 99.0 | 104.0
Cc1cc(C)c(NC(=O)c2oc3c(c2C)-c2[nH]ncc2CC3)c(C)c1 | 108.0 | 117.0
COc1ccc(CNC(=O)CSc2ncc3c(n2)-c2cc(Cl)ccc2N(Cc2ccccc2)S3(=O)=O)cc1OC | 106.0 | 112.0
COc1cc(/C=C(\C#N)c2nc3ccc(C)cc3[nH]2)ccc1OC(C)C | 102.0 | 104.0
Fc1cccc(CSc2ccc(-c3cccs3)nn2)c1 | 110.0 | 104.0
CCOc1ccc(CNC(=O)c2cnc3sc(N4CCOCC4)nn3c2=O)cc1OC | 104.0 | 100.0
CC(NC(=O)Cn1c(=O)oc2cc(S(=O)(=O)N3CCCCCC3)ccc21)c1ccccc1 (stereo unspecified) | 107.0 | 104.0
O=C(OCc1cccc(C(F)(F)F)c1)c1ccc(-c2nnn(Cc3ccc(F)cc3)n2)cc1 | 104.0 | 107.0
CCOc1ccc(NC(=O)CCc2c(C)nn(-c3ccc(N4CCCC4)nn3)c2C)cc1 | 101.0 | 105.0
CCOc1ccc(/C=C/c2nc(C#N)c(NC(C)CC)o2)cc1 (stereo unspecified) | 114.0 | 109.0
Cc1ccc(-n2ncc3c(N4CCCCCC4)ncnc32)cc1 | 104.0 | 110.0
CCOc1ccc(C2c3c(-c4cc(C)ccc4O)n[nH]c3C(=O)N2Cc2cccnc2)cc1OCC (stereo unspecified) | 111.0 | 110.0
O=C(CC1NCCNC1=O)Nc1ccc(F)c(Cl)c1 (stereo unspecified) | 100.0 | 101.0
O=C(c1cc2ccc3cccnc3c2[nH]1)N1CCN(c2cccc(C(F)(F)F)c2)CC1 | 109.0 | 109.0
Cn1c(C(=O)NCCc2ccccc2)cc2sc(Cl)cc21 | 108.0 | 111.0

(further entries)
SMILES | PV pol inh | PV pol inh intensity
COc1ccc(NC(=O)c2c(NCc3cccs3)sc3c2CCCC3)c(OC)c1 | 105.0 | 108.0
Cc1cc(=O)n(Cc2ccc(F)cc2Cl)c2c1c(C)nn2-c1ccccc1 | 108.0 | 108.0
Cc1nc2c(c(C)nn2-c2ccccc2)c(C)c1CCC(=O)Nc1ccc(F)cc1 | 112.0 | 112.0
O=C(Cc1ccc(NC(=O)N2CCCCc3ccccc32)cc1)NCc1ccccc1 | 103.0 | 99.0
CCCOc1ccc(C2C(=O)N(C3CCCCC3)CC(=O)N2CCC2=CCCCC2)cc1OC (stereo unspecified) | 111.0 | 105.0
Cc1ccc(OCCn2c(CNc3ccccc3C)nc3ccccc32)cc1 | 106.0 | 106.0
COc1cccc(NC(=O)CSCc2cc(=O)c3ccc(C)c(C)c3[nH]2)c1 | 102.0 | 86.0
Cc1ccc(-c2cn3cccnc3n2)cc1NC(=O)Nc1ccc(F)cc1 | 107.0 | 108.0
Cc1cc(F)ccc1NC(=O)CN(C)S(=O)(=O)c1ccc(C(=O)N2CCOCC2)s1 | 110.0 | 112.0
COc1ccccc1CNC(=O)CCCCn1c(=O)c2ccccc2n(Cc2c(C)cc(C)cc2C)c1=O | 105.0 | 106.0
CCOc1ccccc1/C=C/c1onc(C)c1S(=O)(=O)N1CCC(C(=O)N(CC)CC)CC1 | 101.0 | 106.0
COc1ccc(OC)c(NC(=O)c2cn3c4c(ccc(Cl)c4c2=O)OC(C)C3)c1 (stereo unspecified) | 110.0 | 108.0
COc1ccccc1Nc1cc(C)nc2nc(-c3ccccc3)nn12 | 105.0 | 110.0
CC(C)(C)C1CCc2c(sc(NC(=O)c3ccccc3F)c2C(=O)NCc2ccco2)C1 (stereo unspecified) | 100.0 | 103.0
CCCN(CCC)C(=O)c1nn(C)c2c1CSc1ccc(C)cc1-2 | 112.0 | 113.0
CC(C)(C)C1CCc2c(sc(NC(=O)c3ccco3)c2C(=O)Nc2ccccc2Cl)C1 (stereo unspecified) | 101.0 | 96.0
Cc1ccc(CNC(=O)Cn2ccn(-c3ccc(F)c(F)c3)c(=O)c2=O)cc1 | 101.0 | 109.0
Cc1noc(Cn2c(=O)c3cc4c(cc3n(CC(=O)Nc3ccccc3F)c2=O)OCO4)n1 | 108.0 | 113.0
COC(=O)c1cc2oc3ccccc3c2n1CC(=O)Nc1ccc(C)cc1C | 101.0 | 105.0
O=C(O)c1ccc2c(c1)N(Cc1ccc(F)cc1Cl)C(=O)c1ccccc1S2 | 110.0 | 105.0
O=C(Nc1ccc(F)cc1F)c1cc2ccc3cccnc3c2[nH]1 | 107.0 | 114.0
Cc1ccc2c(c1)cc1c(=O)n(CC(=O)N3CCCCC3)nc(C)n12 | 104.0 | 107.0
COc1ccc(C2c3c(oc4cc(C)cc(C)c4c3=O)C(=O)N2Cc2ccco2)cc1OC (stereo unspecified) | 109.0 | 107.0
CC1CCCCN1c1nc(-c2ccc(C(C)(C)C)cc2)nc2ccccc12 (stereo unspecified) | 103.0 | 105.0
CC(=O)Nc1ccc(NC(=O)c2cnn(-c3ccccc3)c2C2CCN(C(=O)OC(C)(C)C)CC2)cc1 | 109.0 | 110.0
Cc1ccccc1NS(=O)(=O)c1ccc2[nH]cc(C(=O)N3CCCC3)c(=O)c2c1 | 103.0 | 101.0
COc1ccc(Cl)cc1NC(=O)CSc1nccn1Cc1ccco1 | 107.0 | 105.0
CCOc1ccc(N(CC(=O)NCc2ccc(Cl)cc2)S(=O)(=O)c2c(C)noc2C)cc1 | 110.0 | 114.0
Clc1ccc(-n2ncc3c(NC4CCCC4)ncnc32)cc1 | 105.0 | 105.0
CCOc1ccc(NC(=O)c2ccc(NC(=O)CCS(=O)(=O)c3cccs3)cc2)cc1 | 105.0 | 106.0
Cc1ccc(NC(=O)c2ccc3snnc3c2)cc1Cl | 109.0 | 113.0
Cc1ccc2oc3c(c(=O)c2c1)C1(C(=O)N(C)c2ccccc21)N(CCCO)C3=O (stereo unspecified) | 104.0 | 101.0
Cc1ccc2c(c1)C(=O)OC(C(=O)Nc1ncc(Cc3ccccc3Cl)s1)C2 (stereo unspecified) | 103.0 | 107.0
Cc1nn(Cc2ccc(Cl)c(Cl)c2)c(C)c1NC(=O)c1noc2c1CCc1ccccc1-2 | 101.0 | 102.0
CCN1CCN(c2c(S(=O)(=O)c3ccccc3)cnc3ccc(Cl)cc23)CC1 | 105.0 | 106.0
CCCc1cc(=O)oc2cc(C)c3c(-c4cccc(OC)c4)coc3c12 | 110.0 | 112.0
Cc1ccccc1NC(=O)CSc1nc2ccc(NC(=O)c3ccco3)cc2s1 | 100.0 | 107.0
